Bioassay records (PubChem)
CtBP-E1A blk: blocks the CtBP interaction with E1A. AlphaScreen GST-E1A/His-CtBP binding, 1536-well; stronger effect = lower value; control for the full effect not named in the record. activity change, % (test concentration not listed). 340,000 tested, 0.49% active. AID 651724; in the data active means activity change below about -65%; inconclusive means about -30% to -65%; inactive means above about -30%; also: % is scaled to controls: 0 for no effect and ±100 for the full control effect; compound concentration not given in the record
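Homogeneous bead-based format: GST-tagged E1A captured on glutathione donor beads, His-tagged CtBP on nickel acceptor beads; compounds precede bead addition by 2 h at 37 °C.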
TRPML1 inh: inhibitors of human TRPML1 channel; Q9GZU1; 390,000 tested, 0.02% active; AID 624415; TRPML1-inducible cells, Ca2+ dye fluorescence, FDSS; stronger effect = lower value; inhibition of EC80 agonist-evoked calcium signal; activity change, negative = inhibition, % (concentration not given with the values); in the data active means activity change below about -50%; inconclusive means about -30% to -50%; inactive means above about -30%;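 also: stimulus is agonist 54-4 at its EC80 concentration; % is scaled to controls: 0 for no effect and ±100 for the full control effect; compound concentration not given in the record; the text of the record puts the active cut at -80%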
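Calcium fluorescence in TRPML1-DL cells induced overnight with Tet: a 110 s read after compound pin addition, then a 110 s antagonist read after challenge with 54-4 at 4 uM final (EC80).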
TRPV1 potentiator: human TRPV1 potentiation; TRPV1-expressing cells, Fluo-8 calcium influx, capsaicin EC20 potentiation; host cell line not named in the record; control for the full effect not named in the record; Q8NER1; 320,000 tested, 0.02% active; potentiation, % at 8.33 µM; active means potentiation above 80%; inconclusive means 30% to 80%; inactive means below 30%; also: 0% is about no effect
Target sequence (Q8NER1 whole entry, looked up): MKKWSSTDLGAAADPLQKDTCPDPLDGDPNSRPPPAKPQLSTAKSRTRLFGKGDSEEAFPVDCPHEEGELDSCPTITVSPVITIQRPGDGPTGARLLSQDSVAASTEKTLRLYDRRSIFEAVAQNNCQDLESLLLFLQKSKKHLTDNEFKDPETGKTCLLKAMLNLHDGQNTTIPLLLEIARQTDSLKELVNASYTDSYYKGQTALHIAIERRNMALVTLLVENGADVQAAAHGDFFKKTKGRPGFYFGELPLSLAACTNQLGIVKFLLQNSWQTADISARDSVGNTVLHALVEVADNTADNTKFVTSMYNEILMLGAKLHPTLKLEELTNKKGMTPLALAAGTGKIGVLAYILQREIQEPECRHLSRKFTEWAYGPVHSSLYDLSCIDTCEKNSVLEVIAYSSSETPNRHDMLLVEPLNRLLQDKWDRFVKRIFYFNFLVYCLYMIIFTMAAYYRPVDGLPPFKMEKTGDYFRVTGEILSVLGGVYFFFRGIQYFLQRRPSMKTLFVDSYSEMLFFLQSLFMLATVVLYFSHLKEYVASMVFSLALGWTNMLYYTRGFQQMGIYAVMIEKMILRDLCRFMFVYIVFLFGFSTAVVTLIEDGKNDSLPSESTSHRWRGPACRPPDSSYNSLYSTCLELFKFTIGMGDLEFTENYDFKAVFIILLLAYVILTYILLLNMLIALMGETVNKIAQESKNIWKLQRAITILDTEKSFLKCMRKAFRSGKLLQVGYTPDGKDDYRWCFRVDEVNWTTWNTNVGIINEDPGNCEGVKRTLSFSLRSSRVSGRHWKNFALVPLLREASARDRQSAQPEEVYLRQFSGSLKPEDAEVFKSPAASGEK
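Cells expressing TRPV1 were dye-loaded with Fluo-8 and read kinetically: 10 s baseline, 3 min after compound (agonist portion), then 2 min after EC20 capsaicin (allosteric enhancer portion). Calcium-bound dye fluorescence at 480/520 nm.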
TRPML1 ag: activates the human TRPML1 channel | Q9GZU1 | TRPML1-expressing cells, Ca2+ dye fluorescence, FDSS; host cell line not named in the record; reference of the full effect not given here | activation, % (test concentration not listed) | 410,000 tested, 0.12% active | AID 624414; in the data active = activation above about 50%; inconclusive = about 30% to 50%; inactive = below about 30%; also: 0% is about no effect; the text of the record puts the active cut at 80%
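Calcium fluorescence on an FDSS kinetic reader gave the read-out. Tet-induced TRPML1-DL cells were plated overnight, dye-loaded (Ca8 with quencher, 45-90 min, room temperature, dark), then read 110 s after compound addition, and again 110 s after 4uM final 54-4 (EC80).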
Six1-Eya2 blk: inhibitors of human Six1/Eya2 interaction; Q15475+O00167; AlphaScreen GST-Six1/His-Eya2 binding, biochemical; stronger effect = lower value; control for the full effect not named in the record; activity change, % (concentration not given with the values); 360,000 tested, 0.56% active; in the data active = activity change below about -65%; inconclusive = about -30% to -65%; inactive = above about -30%; also: % is scaled to controls: 0 for no effect and ±100 for the full control effect
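AlphaScreen luminescence read after one hour at 37 °C in darkness. Pin-transferred compounds met GST-Six1 and His-Eya2 protein (5X stock 250 nM/500 nM) plus glutathione donor and Ni-chelate acceptor beads (5X, 50 ug/mL).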
D2 potentiator: positive allosteric modulators of human D2 dopamine receptor; P14416; DiscoveRx D2 beta-arrestin cells, luminescence, 90 min; 100% = 57 uM dopamine signal; potentiation, % (test concentration not listed); 360,000 tested, 0.23% active; active = potentiation of 50% or more; inconclusive = 30% to 50%; inactive = 30% or less;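 also: compound concentration not given in the record; tested on top of an EC20 dose of dopamine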
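D2 cells co-treated with compound plus 50 nM dopamine (EC20) for 90 min at 37 deg C to detect potentiation. Beta-arrestin recruitment was read as enzyme-fragment luminescence after 1 h at ambient temperature. Full response was set by 57 uM dopamine.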
* marks the source's active call; other numbers are inactive results; ? = inconclusive; / = not tested or not shown; & = joins results of further samples.

SMILES	CtBP-E1A blk	TRPML1 inh	TRPV1 potentiator	TRPML1 ag	Six1-Eya2 blk	D2 potentiator
CCc1nnc(NS(=O)(=O)c2ccc(NC(=O)COc3ccc4ccccc4c3)cc2)s1	4	-9	12	-0.8	0	0
COC(=O)c1cccc(NC(=O)CCN2C(=O)NC(C)(C)C2=O)c1	-1	-3	/	-0.5	-16	-4
CCC(=O)c1ccc(OCC(=O)OCC(=O)NC2CCCCCCC2)cc1	7	-1	-15	0.1	4	1
O=[N+]([O-])c1ccc(N/N=C/c2cccc(O)c2)cc1	0	-2	-3	4.4	5	-1
COc1cc(CCC(=O)OCC(=O)Nc2sccc2C(N)=O)cc(OC)c1OC	1	21	-7	3.0	-10	22
CNC(=S)N1N=C(c2cccs2)CC1c1ccc(F)cc1 (stereo not drawn)	22	-3	26	0.1	15	-7
O=C(N/N=C/c1c[nH]c2ccccc12)c1cc(-c2ccc3ccccc3c2)n[nH]1	-19	31	?	-0.8	-5	19
O=C(c1ccccc1)N1CCCC(c2ccc(Cl)cc2)=N1	10	2	?	2.4	6	-14
CC[C@H]1OC(=O)[C@H](C)[C@@H](O[C@H]2C[C@@](C)(OC)[C@@H](O)[C@H](C)O2)[C@H](C)[C@@H](O[C@@H]2O[C@H](C)C[C@H](N(C)C)[C@H]2O)[C@](C)(O)C[C@@H](C)C(=NOCOCCOC)[C@H](C)[C@@H](O)[C@]1(C)O	-16	-15	13	-0.2	6	-4
Cc1[nH][nH]c(=O)c1C(c1ccc(Br)cc1)c1c(C)[nH][nH]c1=O	-26	12	9	-0.2	-4	-6
CNc1ccc(/C=C(\C#N)c2ccccn2)cc1[N+](=O)[O-]	1	-1	0	-0.2	-11	-19
CCCCCCCCNc1ccccc1S(=O)(=O)NCc1ccccc1	0	-5	/	0.4	17	2
CCOC(=O)c1c(C)n(-c2ccccc2)c2ccc(O)cc12	1	-7	10	0.4	4	-4
C(=C\c1ccccc1)/CSc1nnc(-c2ccncc2)n1Cc1ccco1	-5	56	0	1.8	2	-7
CCOC(=O)/C(C(N)=NCC(C)C)=C(/O)c1ccccc1	2	-14	-12	2.5	1	9
COc1ccc(OC)c(S(=O)(=O)n2ccnc2C)c1	3	6	1	-1.2	3	6
Cc1nnc(NC(=O)CSCc2c(C)noc2C)s1	-3	-2	1	0.4	12	2
COc1ccccc1CN1C[C@@H]2C[C@@H](C3=Cc4cc(Cl)ccc4OC3)N3CCC[C@@]23C1=O	-23	13	-3	1.9	-18	-2
Cc1ccccc1-n1nnnc1SC1CCOC1=O (stereo not drawn)	0	13	0	-0.5	5	-5
COc1ccc(S(=O)(=O)c2ccc(OCC3CO3)cc2)cc1 (stereo not drawn)	5	2	?	-0.9	1	1
C[C@H](NC(=O)c1ncn2c1C(=O)NC[C@@H]2C)C(=O)OC(C)(C)C	-4	-13	/	0.4	?	10
O=C(C1CCN(c2nc(-c3ccccc3)nc3c2CCC3)CC1)N1CCC(O)CC1	-1	-4	-22	-0.3	10	-18
COc1ccc(NC(=O)C2CCN(S(=O)(=O)c3ccc(OC)c(OC)c3)CC2)c(OC)c1	-2	-9	1	-0.7	-1	-8
Cc1ccc(S(=O)(=O)NC2CCCc3ccccc32)cc1C (stereo not drawn)	8	-14	7	-0.4	7	-5
Cc1ccc2c(c1)N(C(=O)c1ccco1)C(C)(C)c1ssc(=S)c1-2	?	-9	-4	2.2	?	-9
O=C(COC(=O)c1ccc(O)cc1O)Nc1ccc2c(c1)OCCO2	/	-5	-3	-0.8	-2	7
CC(OC(=O)COc1ccc(C#N)cc1)C(=O)c1ccccc1 (stereo not drawn)	-11	5	-12	2.0	9	1
COc1ccc(NC(=S)N(CCO)Cc2cc3c(C)cc(C)cc3[nH]c2=O)cc1	2	7	5	0.8	2	-3
S=C(Nc1ccc(Cl)cc1Cl)Nn1cnnc1	6	1	-2	-0.5	7	-8
Cc1cccc2sc(NC(=O)c3ccc(Cl)s3)nc12	4	-8	1	-0.7	2	-6
O=C(Nc1cccc(Cl)c1Cl)c1ccccc1OCC(=O)N1CCOCC1	15	-4	-2	1.4	1	-13
COc1c(Br)cc([N+](=O)[O-])c(OC)c1C(=O)NC(=O)Nc1nc(C)cc(C)n1	0	17	/	0.0	4	0
COC(=O)c1cc(OC)nc2ccc(Br)cc12	/	-9	2	0.3	71	-15
CC(C)(C)c1ccc(C2C(C(=O)c3ccco3)=C(O)C(=O)N2CC2CCCO2)cc1 (stereo not drawn)	4	20	3	0.7	-8	-4
COc1ccc(Nc2cc(Cl)ccc2C(=O)O)cn1	2	/	-17	/	1	-1
CN1C(=O)[C@@H]2[C@@H]3C[C@@H]([C@H]4ON=C(c5ccc(Cl)cc5Cl)[C@@H]34)[C@@H]2C1=O	2	-14	5	2.1	9	-16
COc1ccc(C2/C=C\CN(Cc3ccco3)CC(=O)N2Cc2ccc(F)cc2)cc1 (stereo not drawn)	-4	19&25	?	2.3&1.2	-5	-6
CN=Cc1c(NC)nc2c(C)cccn2c1=O	2	-1	20	-0.2	-6	-22
O=C(Oc1cccc([N+](=O)[O-])c1)N1CCCCC1	/	4	-2	-0.4	-8	-10
Cc1ccc(-n2c(C)cc(C(=O)OCC(=O)N3CCOCC3)c2C)cc1	2	-4	/	-0.1	-14	-28
O=C(OCC(=O)N1CCOCC1)c1ccc(N2CCOCC2)c([N+](=O)[O-])c1	-3	-25	-6	0.0	2	-5
NCC12CC3CC(CC(O)(C3)C1)C2	7	-7	18	0.8	10	-2
CCCCC(=O)N1C/C=C\[C@H](c2ccc(OC)cc2)N(Cc2ccc(F)cc2)C(=O)[C@@H]1C	/	-10	/	-0.6	-6	-9
CCN1CCCC1CNCc1cc(OC)c(OC)c(OC)c1 (stereo not drawn)	7	3	5	3.9	5	4
O=C(NN=Cc1cc([N+](=O)[O-])ccc1O)c1cccc2ccccc12	-3	3	/	1.1	-92*	-18
Cc1c(/C=N/O)c2ccccn2c1C(=O)c1ccc(F)cc1	-8	-10	5	-0.4	-16	-7
O=C(C1=C[C@@H](C2CC2)C[C@@H](OCCCCO)O1)N1CCOCC1	4	66	-3	-0.5	1	-5
Cc1cc(Cl)ccc1NC(=O)/C=N/O	/	-12	-3	-0.8	5	-15
COc1cc(NS(=O)(=O)c2ccc(NC(=O)/C(=C\c3ccccc3OC)NC(=O)c3ccccc3)cc2)nc(OC)n1	11	-9	8	0.8	-10	2
Nc1c(Cl)ncnc1NCCO	/	?	-10&-10	0.9	8	4

Another view of part of the listing above.
O=C(C1=C[C@@H](C2CC2)C[C@@H](OCCCCO)O1)N1CCOCC1
- CtBP-E1A blk: 4
- TRPML1 inh: 66
- TRPV1 potentiator: -3
- TRPML1 ag: -0.5
- Six1-Eya2 blk: 1
- D2 potentiator: -5
CCCCC(=O)N1C/C=C\[C@H](c2ccc(OC)cc2)N(Cc2ccc(F)cc2)C(=O)[C@@H]1C
- CtBP-E1A blk: /
- TRPML1 inh: -10
- TRPV1 potentiator: /
- TRPML1 ag: -0.6
- Six1-Eya2 blk: -6
- D2 potentiator: -9
Cc1c(/C=N/O)c2ccccn2c1C(=O)c1ccc(F)cc1
- CtBP-E1A blk: -8
- TRPML1 inh: -10
- TRPV1 potentiator: 5
- TRPML1 ag: -0.4
- Six1-Eya2 blk: -16
- D2 potentiator: -7
O=C(OCC(=O)N1CCOCC1)c1ccc(N2CCOCC2)c([N+](=O)[O-])c1
- CtBP-E1A blk: -3
- TRPML1 inh: -25
- TRPV1 potentiator: -6
- TRPML1 ag: 0.0
- Six1-Eya2 blk: 2
- D2 potentiator: -5

(more compounds)
SMILES	CtBP-E1A blk	TRPML1 inh	TRPV1 potentiator	TRPML1 ag	Six1-Eya2 blk	D2 potentiator
CCOC(=O)C(NCc1ccc(OC)cc1)(NC(C)=O)C(F)(F)F (stereo not drawn)	5	5	-3	0.1	-6	-21
COc1ccc(-c2nc(-c3ccc(Br)cc3)no2)c(OC)c1	-3	-2	16	1.0	2	-3
CCOC(=O)c1ccc(NC(=O)CN(c2ccc(C)cc2)S(=O)(=O)c2c(C)nn(C)c2C)cc1	1	9	-1	4.7	-1	-5
CCN1CCN(S(=O)(=O)c2ccc(Cl)c(C(=O)N(CC)Cc3ccccc3)c2)CC1	-5	4	-18	0.4	1	-22
Cc1cc(C)c(C#N)c(SCc2ccc3c(c2)OCO3)n1	23	-4	3	0.7	27	-4
O=C1c2ccccc2NC(c2cccc(Cl)c2)N1N=C1CCCCCC1 (stereo not drawn)	0	-5	15	-0.9	-2	-11
COc1cc(OC)cc(C(=O)Nc2c(F)cccc2F)c1	-10	1	?	-0.4	0	9
COc1ccc(C(=O)NC(=S)NNC(=O)c2ccncc2)cc1Br	-16	-1	16	1.4	-5	-4
C/C(N)=C(/C#N)C(=O)COC(=O)c1oc2ccccc2c1COC(C)C	9	1	-10	-0.7	7	-10
CCCNC(=O)c1c(O)c2c([nH]c1=O)CCCC2	-10	8	-5	-0.3	1	-7
COCc1cc(=O)n2[nH]c(SC)nc2n1	7	9	15	-1.0	5	-3
N#Cc1cnn(-c2cccc(Cl)c2)c1-n1cccc1	6	6	8	2.3	12	-7
CCc1ccc2c(COn3nnc4ccc(S(=O)(=O)N(C)C)cc43)cc(=O)oc2c1	-25	18	17	-0.1	-3	-3
COCCCNC(=O)C1CCCCN1S(=O)(=O)c1ccc(F)cc1 (stereo not drawn)	-4	-12	-4	-0.1	3	-9
CCN(CC)S(=O)(=O)c1cccc(C(=O)Nc2ccc(C#N)cc2)c1	-9	-5	-20	0.5	1	18
O=[N+]([O-])c1ccc(Nc2ccccc2O)c2nonc12	/	17	24	0.6	-3	-31
O=C(CNS(=O)(=O)Cc1ccccc1)NCc1ccccc1	5	0	-3	-0.3	0	-9
CC(OC(=O)c1oc2ccccc2c1CSC1CCCCC1)C(=O)NC(N)=O (stereo not drawn)	3	-8	-2	0.9	-4	-11
O=C(CCC1COc2ccccc2O1)NC1CCCCC1 (stereo not drawn)	4	37	-14	0.2	7	-8
O=C(CCc1nnc(C2(c3ccc(Cl)cc3)CCC2)o1)NCCCn1cccn1	5	4	0	-0.4	0	0
O=C(N/C(=C/c1cccs1)C(=O)N1CCCC1)c1ccccc1	-1	3	4	0.3	8	-8
CCc1cc(=O)oc2c(C)c(OCC(=O)N3CC[C@@]4(O)CCCC[C@H]4C3)ccc12	0	/	-2	/	3	-16
O=C(NCCCN1CCOCC1)C1CCN(S(=O)(=O)c2cccc(C(F)(F)F)c2)CC1	18	-11	-9	0.2	0	-11
Cc1ccccc1-c1cccc(CN2CCN(C)C(CCO)C2)c1 (stereo not drawn)	-1	8	-1	0.9	3	-3
CCOC(=O)c1nnn(-c2ccc(OC)cc2)c1N	-2	-11	20	3.2	0	5
O=C(O)/C(=C\c1ccco1)NC(=O)c1ccco1	/	-5	-3	-0.4	7	-27
O=C(CN1CCC(n2nnc3cc(F)ccc32)CC1)NC1CCCCC1	2	-1	1	-0.5	-4	-18
Cc1c(OCC(=O)NCCCN2CCOCC2)ccc2c1oc(=O)c1ccccc12	-6	-13	21	0.1	-4	-3
O=c1nc(Nc2ccccc2)sc2ccc([N+](=O)[O-])cc12	4	-2	-3	0.7	8	-16

No enrichment for hits, and some 0.95% of all compounds hit somewhere here.
